# High-throughput results as filed in PubChem BioAssay.
# H5N1 antiviral: MDCK cell protection from H5N1 avian flu | cytopathic effect, luminescence, 72 h; stronger effect = higher value; no value below 0 was filed and about half of the inactive calls have no number; reference of the scale not given here | inhibition, % at 50 µM | 96,000 tested, 0.07% active | AID 740; in the data active = inhibition above about 25%
# An asterisk follows results filed as active; i = inactive. These rows are one share of the data (hit frequency here may not be typical).
# The opening 2 compounds as a preview:
SMILES,H5N1 antiviral
COc1cc(NC(=O)CN2c3cccc4cccc(c34)S2(=O)=O)cc(OC)c1OC,i
CCC(C)N(C(=O)Cn1nnc2ccccc21)C(C(=O)Nc1ccc(F)cc1)c1cccc(OC)c1 (stereo unspecified),i

# The listing, repeating the preview:
SMILES,H5N1 antiviral
COc1cc(NC(=O)CN2c3cccc4cccc(c34)S2(=O)=O)cc(OC)c1OC,i
CCC(C)N(C(=O)Cn1nnc2ccccc21)C(C(=O)Nc1ccc(F)cc1)c1cccc(OC)c1 (stereo unspecified),i
O=C(C1CCN(S(=O)(=O)N2CCCC2)CC1)N1CCCCC1,1.1
CCC(=O)NC1(C(F)(F)F)C(=O)Nc2c1c(=O)[nH]c(=O)n2Cc1ccco1 (stereo unspecified),0.6
Cn1c(=O)[nH]c(=O)c2c1nc(NCc1ccccc1)n2CCCc1ccccc1,i
N#CC1=C(N)Oc2n[nH]c(-c3cccs3)c2C1c1ccsc1 (stereo unspecified),0.8
CCCn1c(SCC(=O)N2CCN(c3ccccc3)CC2)nc2ccccc2c1=O,1.0
Cc1c(C)c2ccc(OCc3ccc(C(=O)O)o3)c(C)c2oc1=O,i
COc1ccc(Cc2nc3ccc(S(N)(=O)=O)cc3[nH]2)cc1OC,0.3
CCC(C)[C@H](NC(=O)NCc1ccco1)C(=O)O (stereo partly specified),i
CCN(c1ccccc1)S(=O)(=O)c1cc(C(=O)O)ccc1C,0.6
Cc1ccc2[nH]c3c(c2c1)CCC3=O,0.3
O=C(NCc1ccc2c(c1)OCO2)C1CC(c2ccc(Cl)cc2)=NO1 (stereo unspecified),i
COc1ccc2c(-c3cccnc3)cc(=O)[nH]c2c1,2.7
COc1ccc(C2(C)NC(=O)N(CC(=O)Nc3ccc4c(c3)OCO4)C2=O)cc1OC (stereo unspecified),i
COc1ccc(OC)c(C2C(C#N)=C(N)Oc3cc(C)[nH]c(=O)c32)c1 (stereo unspecified),0.5
CCC(C)(C)n1nnnc1C(c1cccnc1)N1CCN(c2cccc(C(F)(F)F)c2)CC1 (stereo unspecified),6.3
O=C(CNC(=S)NC(=O)c1ccco1)c1ccccc1,4.3
Cc1nnc(SCCn2c(Br)nc3c2c(=O)[nH]c(=O)n3C)s1,i
Cc1cccc(NC(=O)NNC(=O)c2cc(-c3ccccc3Cl)nc3ccccc23)c1,0.1
COC(=O)c1c(N)n(-c2ccc(NC(C)=O)cc2)c2nc3ccccc3nc12,i
CCNC(=O)CCn1nc(-c2ccc(Cl)cc2)c2ccccc2c1=O,0.3
CCC(=O)c1ccc(OCC(O)CN2CCOCC2)cc1 (stereo unspecified),i
O=C(c1ccccc1F)N1CCN(c2ccccc2)CC1,i
CN(CCO)C(=O)CCC(=O)Nc1ccc(S(N)(=O)=O)cc1,0.2
CCOC(=O)c1[nH]c2ccccc2c1NC(=O)C(C)(C)C,4.1
Cc1ccc(NC(=O)c2nccnc2C(=O)O)cc1C,i
Cc1cc(C)n2c(SCC#N)nnc2n1,1.0
Cc1ccc(S(=O)(=O)c2c(C)cc(C)nc2Cl)c(C)c1,0.9
CCCn1c(CCc2ccccc2)nnc1SCC(=O)N1CCOCC1,0.2

# Three of the compounds above, with each value named.
> COc1ccc(C2(C)NC(=O)N(CC(=O)Nc3ccc4c(c3)OCO4)C2=O)cc1OC (stereo unspecified)
  H5N1 antiviral: i
> COc1ccc(OC)c(C2C(C#N)=C(N)Oc3cc(C)[nH]c(=O)c32)c1 (stereo unspecified)
  H5N1 antiviral: 0.5
> CCC(C)(C)n1nnnc1C(c1cccnc1)N1CCN(c2cccc(C(F)(F)F)c2)CC1 (stereo unspecified)
  H5N1 antiviral: 6.3

# Additional records follow.
SMILES,H5N1 antiviral
CC1(C)CC(=O)/C(=C(\O)c2ccccc2)C(=NCCO)C1,i
Cc1cc(C)c(C(N)=O)c(Nc2ccc3c(c2)OCCO3)n1,0.8
CCn1c(CNC(=O)COC)nc2ccccc21,0.1
O=S(=O)(c1ccc(-c2nnc(SCc3ccccc3)o2)cc1)N1CCCC1,0.1
O=C(CCc1c[nH]c2ccccc12)NC1CC1,0.3
CCOC(=O)c1cc2c(s1)-c1ccccc1CC2,1.4
COc1cc(C(=O)N(Cc2cc3cc(C)ccc3[nH]c2=O)CC2CCCO2)cc(OC)c1OC (stereo unspecified),0.3
CCc1nnc(NC(=O)CSc2nnc(-c3cc4ccccc4cc3O)n2CC)s1,0.2
Cc1ccc(OCc2nnc(SCc3cc(=O)[nH]c4ccccc34)o2)cc1,i
CCCCCOCC(O)CCC(=O)NN (stereo unspecified),i
Cc1ccc(-c2noc(CSc3nnc(-c4cccs4)n3C)n2)cc1,0.2
COc1ccc2[nH]c3nc(SCc4nnc(-c5ccc(C)cc5)o4)nnc3c2c1,i
CCOC(=O)/C(C#N)=C1/C=CN(C)C(C)=N1,i
Cn1c(N)c(C(=O)COC(=O)C2(c3cccc(F)c3)CCCC2)c(=O)n(C)c1=O,i
COc1ccc(NC(=O)CCc2nc(-c3ccc(C)cc3)no2)cc1Cl,i
Cc1ccc2[nH]c(-c3ccccc3)c(CN3CCOCC3)c(=O)c2c1,0.9
CC(/C=C/c1ccco1)=N\NC(=O)c1cc(C)[nH]n1,0.4
CCCCn1c(N)c(-c2nc3ccccc3s2)c2c([N+](=O)[O-])nn(CC)c(=O)c21,i
CCOC(=O)C1C(=O)OC2(CCCC2)C1C(=O)OCC (stereo unspecified),i
O=C(CSCc1cccc(Cl)c1)N/N=C/c1ccc(OCC(=O)N2CCCCC2)cc1,2.9
CC(=O)Nc1nc(C)c(Oc2ccc(Cl)cc2Cl)c(=O)[nH]1,i
CNC(=O)COC(=O)c1ccc(NC(=O)CC#N)cc1,i
CC1(C)CC(=O)C2=C(C1)N(Cc1ccco1)C(=O)C2(NC(=O)c1cccnc1)C(F)(F)F (stereo unspecified),0.5
Cc1cc(=O)[nH]c2cc(O)ccc12,i
COc1ccc(N2CCN(C(=O)CSc3nnc(-c4cc5ccccc5cc4O)n3C)CC2)cc1,i
CCCOc1c(Br)cc(/C=N/O)cc1OC,i
Cc1noc(C)c1C(=O)OCC(=O)c1ccc[nH]1,i
CC1=CC(C)C2(CO)COC(c3ccccc3O)C1C2C (stereo unspecified),0.1
COCCOC(=O)C1=C(C)NC2=C(C(=O)CC(C)(C)C2)C1c1cccnc1 (stereo unspecified),0.6
COc1ccc(NC(=O)CSc2nc3ccccc3c(=O)n2CCC(=O)N2CCCCC2)cc1,1.1
Cc1ccc(N2C(N)=NC(N)=NC23CCCC3)c(C)c1,i
C=CCc1cc(C=O)cc(OC)c1OCc1c(Cl)cccc1Cl,i
CCc1ccc(-c2nc(NC(=S)NC(=O)c3cccs3)sc2C)cc1,1.4
Cc1ccc(C)c(NC(=S)NC(NC(=O)Cc2ccccc2)C(Cl)(Cl)Cl)c1 (stereo unspecified),0.6
Cc1ccc(S(=O)(=O)NCCNc2ccc([N+](=O)[O-])cc2C(F)(F)F)cc1,3.5
COc1ccc(-c2nnc(SCC#N)o2)cc1,0.1
O=C(Nc1cccc(Cl)c1N1CCCCC1)c1ccc2c(c1)OCCO2,0.7
Cn1c(O)c(C=NC(CC(N)=O)C(=O)O)c(=O)n(C)c1=O (stereo unspecified),1.0
O=S(=O)(c1ccc(Oc2ccc(Br)cc2F)nc1)N1CCCCC1,i
Cc1ccc(-c2nnc(N3CCN(C(=O)c4ccco4)CC3)c3ccccc23)cc1,0.9
Cc1c(Cl)cccc1-n1ccnc1SCC(=O)O,i
COC(=O)c1c(NC(=O)CSc2nnc(Cn3nnc4ccccc43)n2C)sc(C)c1C,2.8
CCc1nnc(NC(=O)C2CCN(c3nccc(C)n3)CC2)s1,i
CC(C)c1cc(C(=O)O)n[nH]1,1.0
COc1ccc(NC(=O)C(NC(C)=O)C(=O)NCc2ccccc2OC)cc1 (stereo unspecified),0.1

# Some of these compounds in order of heavy-atom count, rising.
SMILES,H5N1 antiviral
CC(C)c1cc(C(=O)O)n[nH]1,1.0
Cn1c(O)c(C=NC(CC(N)=O)C(=O)O)c(=O)n(C)c1=O (stereo unspecified),1.0
COc1ccc(NC(=O)C(NC(C)=O)C(=O)NCc2ccccc2OC)cc1 (stereo unspecified),0.1

# Remaining list, next part:
SMILES,H5N1 antiviral
CC(=O)Nc1cccc(OCC(O)Cn2cnc3ccccc32)c1 (stereo unspecified),i
Cc1ccc(S(=O)(=O)N2CCN(C(=O)CN3CCOCC3)C2C(C)C)cc1 (stereo unspecified),0.1
CCN(/C=N/c1sc2c(c1C#N)CCCCC2)CC,1.7
Cc1ccc(NC(=O)c2sc(Cl)nc2-c2ccccc2)cc1,i
N#Cc1c2n(c3c(=O)n(Cc4ccccc4Cl)cnc13)CCCC2,2.0
O=S(=O)(c1cccc2cccnc12)N1CCN(Cc2ccc3c(c2)OCO3)CC1,0.9
Cc1cccc(-n2c(N)c(C(=O)NCCN3CCOCC3)c3nc4ccccc4nc32)c1,i
Cc1ccc(C)n1NC(=O)c1cccc(Cl)c1,1.1
N#Cc1nc(COc2cccc(Cl)c2)oc1N1CCN(c2ccccc2)CC1,0.6
COC(=O)c1[nH]c2ccc(F)cc2c1NS(=O)(=O)c1ccc(OC)cc1OC,i
CC(=O)Nc1cc(C(=O)N2CCCC2)ccc1Sc1ccc(C)cc1,0.8
CCCCn1c(SCC(=O)NC(C)(C)C)nnc1-c1ccco1,0.7
O=C1c2cccc3cccc(c23)N1CN1CCN(c2ccccn2)CC1,0.3
CCOc1ccc(NS(=O)(=O)c2ccc3c(c2)CCN3C(=O)CCC(=O)O)cc1,0.5
Cc1ccc(NC(=O)NC2(C(=O)NCc3ccco3)CCCCC2)cc1,0.1

# Structural class, those above containing bromine
SMILES,H5N1 antiviral
Cc1nnc(SCCn2c(Br)nc3c2c(=O)[nH]c(=O)n3C)s1,i
CCCOc1c(Br)cc(/C=N/O)cc1OC,i
O=S(=O)(c1ccc(Oc2ccc(Br)cc2F)nc1)N1CCCCC1,i

# Carrying on.
SMILES,H5N1 antiviral
C=CCSc1n[nH]c(-c2ccc(OCCCC)cc2)n1,i
COc1ccc(CCNC(=O)c2ccc(CNS(=O)(=O)c3cc(C)ccc3C)cc2)cc1OC,i
COCCCn1nnnc1SCC(=O)N1CCCC1,0.1
O=[N+]([O-])c1ccccc1CNCCc1ccc(F)cc1,i
O=C(Nc1ccccc1Cc1ccccc1)C1CC(=O)N(c2ccc3c(c2)OCCO3)C1 (stereo unspecified),i
Cc1nn(-c2ccccc2)c2[nH]c(=O)c(CNCC3CCCO3)cc12 (stereo unspecified),1.2
CN(CC(CC(=O)O)c1ccccc1)S(=O)(=O)c1ccc(Br)cc1 (stereo unspecified),0.6
CCC(=O)Nc1ccc(Oc2ccc3c(c2)C(=O)N(c2ccc(O)cc2)C3=O)cc1,0.6
Cc1cc(N2C(=O)CC(N3CCN(c4ccc(C(=O)c5cccs5)cc4)CC3)C2=O)no1 (stereo unspecified),0.8
CCOC(=O)Cn1nnnc1CN(CCc1ccccc1)Cc1cc2cc(CC)ccc2[nH]c1=O,1.1
O=C(Nc1ccccc1Oc1ccccc1)c1ccc(Br)o1,i
Nc1nc(Cl)cc(Sc2ccc(F)cc2)n1,i
O=c1[nH]c2cc3c(cc2cc1C(c1nnnn1Cc1ccccc1)N1CCCCCC1)OCCO3 (stereo unspecified),i
CCN1C(=O)/C(=C\N2CCN(c3cccc(Cl)c3)CC2)SC1=S,i
O=C(Nc1nncs1)C1(c2ccccc2)CCCC1,1.4
C=CCn1c(CC(=O)Nc2cccc(OC)c2)nnc1SCC(=O)NC1CCCCC1,i
COc1cccc(CC(NC(C)=O)C(=O)NC2CCN(S(=O)(=O)c3cccc4ccccc34)CC2)c1 (stereo unspecified),i
[O-][N+]1=C(c2cccs2)CN(O)C1,i
COc1cc(NC(=O)c2cccs2)c(C(=O)OCC(=O)NC(=O)NCc2ccccc2)cc1OC,i
[O-][n+]1onc2c1CCc1c-2nc(-c2ccccc2)n1OCc1ccccc1,0.4
Cc1cc(-c2nnc(SCC(=O)N3C(C)CCCC3C)o2)no1 (stereo unspecified),1.2
O=c1oc(-c2ccco2)nc2ccccc12,i
CCOC(=O)c1cccc(NC(=O)CCn2cccc2)c1,0.6
CCOC(=O)Cn1nnc(-c2ccc(S(C)(=O)=O)cc2)n1,i
COc1ccc2cc(CN(CCO)C(=O)c3ccccc3F)c(=O)[nH]c2c1,i
O=C(COc1ccc(-c2ccccc2)cc1)N1CCN(C(=O)c2cccnc2)CC1,i
O=CN1CCN(C(=O)CN2C(=O)c3ccccc3C2=O)CC1,2.3
O=C(COC(=O)CCc1ccc(S(=O)(=O)N2CCCCC2)cc1)Nc1ccc2c(c1)OCO2,1.1
CCOC(=O)c1ccc(-n2c(C)nc3c(cnn3-c3ccc(Cl)cc3)c2=O)cc1,i
CCCCCCn1c(N2CCC(C(N)=O)CC2)nc2c1c(=O)[nH]c(=O)n2C,1.9
CCOC(=O)CNC(=O)c1ccccc1Br,i
CC1C(=O)C(C)C(c2cccs2)NC1c1cccs1 (stereo unspecified),1.1
c1ccc(CSc2nnc(SCc3ccccn3)s2)nc1,i
CCOC(=O)CNC(=O)c1sc(NC(=O)c2ccccc2F)nc1C,i
CCCNC(=O)c1cc(OC)c(OC)cc1[N+](=O)[O-],0.2
COc1ccc(OC)c(NC(=O)Cn2cc(C(=O)c3ccco3)c3ccccc32)c1,i
Cc1ccccc1N=C/C=C1\N(C)c2ccccc2C1(C)C,0.1
O=C(O)CCc1ccc(-c2ccc(Cl)cc2)n1Cc1ccco1,0.6
C=CCNC(=O)c1c2c(nc3ccccc13)-c1ccccc1CC2,i
Cc1ccc(C(=O)Nc2cccc(C(=O)N3CCN(C)CC3)c2)cc1,0.3
Cc1c(NC(=O)COc2ncnc3ccccc23)c(=O)n(-c2ccccc2)n1C,0.2
COc1nc2c(s1)C(=O)NCCC2,0.3
CC(C)(C)P(=O)(c1ccncc1)N1CCCC1 (stereo unspecified),0.2
COCCNc1nc(SCC(=O)N2CCN(c3ccccc3)CC2)nc2ccccc12,i
